Bioassay records: PubChem BioAssay, National Center for Advancing Translational Sciences (NCATS)
Sfp PPTase inh: inhibitors of Bacillus subtilis Sfp phosphopantetheinyl transferase | Biochemical Sfp PPTase activity, qHTS | Potency, µM, for the others: max response, negative = inhibition, hits mostly inhibitors | 310,000 tested, 3.5% active | AID 1490; active means well fitted inhibition curve with a large enough effect; inconclusive means small, poorly fitted or top-dose-only effect, or another doubt; inactive means no such curve, though single readings can be large or run the other way;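 further: the enzyme is Sfp with the accession as filed and its product quenches rhodamine fluorescence; potency means the concentration at half of the fitted maximal effect; 0% = enzyme reaction without inhibitor and -100% = no enzyme wells; top concentration of the series not given in the record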
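Sfp 15 nM + cpd, 15 min RT; start w/ rhodamine-CoA 5 uM, BHQ-2-YbbR 12.5 uM (final); 50 mM Hepes pH 7.6, 10 mM MgCl2, 0.01% NP-40, 0.01% BSA; read 525/598 nm at 0 and 30 min.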
TRPML1 ag: agonists of human TRPML1 channel | Q9GZU1 | TRPML1-expressing cells, Ca2+ dye fluorescence, FDSS; host cell line not named in the record; reference of the full effect not given here | activation, % (concentration not given with the values) | 410,000 tested, 0.12% active | AID 624414; in the data active = activation above about 50%; inconclusive = about 30% to 50%; inactive = below about 30%; further: 0% is about no effect; the text of the record puts the active cut at 80%
Target sequence (Q9GZU1 whole entry, looked up): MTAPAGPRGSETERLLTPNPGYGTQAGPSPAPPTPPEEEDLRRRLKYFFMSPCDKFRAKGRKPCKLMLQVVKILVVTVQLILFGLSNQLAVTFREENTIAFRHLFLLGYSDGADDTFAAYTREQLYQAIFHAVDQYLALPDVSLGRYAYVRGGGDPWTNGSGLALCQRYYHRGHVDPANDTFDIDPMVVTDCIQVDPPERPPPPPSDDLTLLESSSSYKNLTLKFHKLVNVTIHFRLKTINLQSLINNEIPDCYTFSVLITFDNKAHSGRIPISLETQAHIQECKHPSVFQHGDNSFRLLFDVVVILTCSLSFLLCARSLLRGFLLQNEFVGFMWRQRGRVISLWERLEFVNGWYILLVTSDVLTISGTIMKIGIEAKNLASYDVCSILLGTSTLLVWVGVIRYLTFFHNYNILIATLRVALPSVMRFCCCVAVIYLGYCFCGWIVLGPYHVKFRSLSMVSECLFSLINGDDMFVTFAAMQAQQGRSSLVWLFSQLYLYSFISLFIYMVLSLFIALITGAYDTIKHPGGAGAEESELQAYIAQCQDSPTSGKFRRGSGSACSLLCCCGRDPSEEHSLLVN
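Cells: TRPML1-DL, 1X Tet inducer, ~16 h at 37 degrees C/5% CO2. Dye: ABD Ca8 no-wash + quencher, 45-90 min RT. Read: 10 s baseline, compound add, 110 s agonist phase; 54-4 EC80 (4uM final), 110 s antagonist phase.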
Menin-MLL FL inh: inhibitors of human menin-MLL interaction, wild-type MLL peptide; 290,000 tested, under 10 active; AID 1766; Fluorescence polarization, fluorescein-MLL peptide displacement from menin; FP activity change, % at 61.4 µM; inconclusive = falling polarisation curve, or a change in total fluorescence; inactive = total fluorescence flat and polarisation flat or rising; no compound was filed as active; the % refers to the polarisation; negative = inhibition;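 further: % of control where 0% means no effect; inhibitors lower the polarisation; unlabelled MLL peptide was the positive control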
ClpP mod: qHTS Assay for Activators of ClpP; ATP-dependent Clp protease proteolytic subunit (Bacillus subtilis (strain 168)), P80244; purified B. subtilis ClpP, FRET peptide cleavage, 20 min; Potency, µM (series often up to 57.5 µM), without a hit: top-dose activity change, negative = active; 340,000 tested, 1.9% active; AID 651965, 2013; active = well fitted falling curve with a large enough effect; inconclusive = small, poorly fitted or top-dose-only effect; inactive = no such curve, though single readings can be large or run the other way; further: potency means the concentration at half of the fitted maximal effect; the source files actives as falling curves though it sought activators and does not explain the sign; nearly all actives have a fitted effect of over 65% in size; many hits overshoot -100%
Target sequence (P80244 whole entry, looked up): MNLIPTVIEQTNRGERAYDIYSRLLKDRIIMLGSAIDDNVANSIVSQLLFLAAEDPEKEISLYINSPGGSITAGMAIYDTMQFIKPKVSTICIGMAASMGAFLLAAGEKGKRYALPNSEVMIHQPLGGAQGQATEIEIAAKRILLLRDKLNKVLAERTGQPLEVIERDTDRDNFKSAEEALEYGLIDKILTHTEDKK
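FRET quenching reversal measured ClpP activation: 10 microg/mL B. subtilis ClpP at pH 8 with the FRET-FV decapeptide, read at 430 nm after 320 nm excitation. The 20-min minus 0-min signal was scaled between DMSO/no-enzyme wells and ADEP (5.8 microM final).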
PINK1 expr mod: changes PINK1 expression | PINK1 immunofluorescence, high-content cytometry, 24 h | Potency, µM (series often up to 76.6 µM), inactives show at the top dose activation (PINK1 increase), most hits filed as activators | 410,000 tested, 0.2% active; active = well fitted activation curve with a large enough effect; inconclusive = small, poorly fitted or top-dose-only effect; inactive = flat fitted curve, though single readings scatter; cell line not stated here;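 further: potency means the concentration at half of the fitted maximal effect; % of control where 0% means no effect; nearly all actives have a fitted effect of over 65% in size; a mitochondrial uncoupler was the plate control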
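Stable cell line, 250 cells/well, 12 h attachment; compounds pinned at 5 concentrations, 24 h; CCCP control. Fixed with nuclear dye, primary antibodies 12 h at 10 degrees C, secondary plus cell stain; laser-scanning cytometer read.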
TRPML1 inh: human mucolipin-1 channel inhibition; TRPML1-inducible cells, Ca2+ dye fluorescence, FDSS; stronger effect = lower value; inhibition of EC80 agonist-evoked calcium signal; activity change, negative = inhibition, % (test concentration not listed); 390,000 tested, 0.02% active; AID 624415; in the data active means activity change below about -50%; inconclusive means about -30% to -50%; inactive means above about -30%;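 further: stimulus is agonist 54-4 at its EC80 concentration; on the % scale 0 is the no-effect control and ±100 the full control effect; compound concentration not given in the record; the text of the record puts the active cut at -80%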
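Tet-induced TRPML1-DL cells loaded with Ca8 no-wash calcium dye were read kinetically on FDSS. Compound addition was followed by EC80 agonist 54-4 (4 uM final); inhibition was read over 110 s.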
TRPV1 PAM: potentiators of human vanilloid receptor 1 (TRPV1); Q8NER1; TRPV1-expressing cells, Fluo-8 calcium influx, capsaicin EC20 potentiation; host cell line not named in the record; control for the full effect not named in the record; potentiation, % at 8.33 µM; 320,000 tested, 0.02% active; active means potentiation above 80%; inconclusive means 30% to 80%; inactive means below 30%; further: 0% is about no effect
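Fluo-8 calcium influx in TRPV1-expressing cells, kinetic read (ex 480/em 520 nm). Compound added and read 3 min for agonist activity, followed by capsaicin at EC20 final and 2 min further read for enhancement.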
The depositor's hits bear a star; ? = inconclusive; / = not tested or not shown; & = joins results of further samples; [ ] = another dose, or the depositor's remark. An excerpt; rates above refer to the full screens.

SMILES	Sfp PPTase inh	TRPML1 ag	Menin-MLL FL inh	ClpP mod	PINK1 expr mod	TRPML1 inh	TRPV1 PAM
CC1=C2C(=O)C3C(CC=C4CC(O)CCC43C)C2CCC12OC1CC(C)CNC1C2C (stereo not drawn)	13.0%	0.0	3.6	/	0.6%	-1.5	29.3
CCCC1=Nc2cc(C(=O)NC3CCC(C)CC3)ccc2Sc2ccccc21 (stereo not drawn)	/	-0.2	/	-0.5%	5.8%	17.6	/
COc1ccc(C(CC(=O)N2CCC3(CC2)OCCO3)NS(=O)(=O)c2ccc(C)cc2)cc1 (stereo not drawn)	-8.6%	-0.2	0.6	0.4%	-1.3%	-25.3	7.4
O=C(CN1CCN(Cc2ccc(Cl)cc2)C1=O)N1CCC2(CC1)OCCO2	17.6%	-0.7	0.1	0.9%	3.1%	-1.3	1.4
O=C(Cc1ccccc1)N1CCN(C2CCCC2)CC1	89.1µM*	-0.1	-2.9	-2.4%	-1.0%	-1.5	1.7
CC(C)N1C(=O)CCC1C(=O)N1CCC2(CC1)OCCO2 (stereo not drawn)	17.6%	1.5	-1.2	0.0%	-0.4%[38.3 µM]	-20.5	14.8
COc1ccc(OC)c(CN2CCCC(C(=O)c3sccc3C)C2)c1 (stereo not drawn)	19.8%	0.6	-0.5	-1.8%	4.6%	18.7	-0.5
Cc1cccc(-n2c(O)c(C=NCCCN3CCOCC3)c(=O)[nH]c2=O)c1C	0.3%	-0.3	-6.0	-2.3%	0.2%	19.1	-2.8
CC1CC(C)(O)CC(C(O)CC2CC(=O)NC(=O)C2)C1=O (stereo not drawn)	/	0.6	/	-2.2%	-7.2%	-22.8	/
COc1ccc(C2CC(c3c(O)n(CCc4ccccc4)c(=O)[nH]c3=O)=NN2)cc1OC (stereo not drawn)	34.4%[activator]	-0.3	1.2	-0.9%	-2.9%	-16.5	1.2
COCCn1c(O)c(/C=N/NC(=O)CSC(=S)N2CCCC2)c(=O)[nH]c1=S	/	3.2	/	-1.8%	2.4%	9.0	-5.5
COc1ccc2c(c1)c(C(=O)O)c(C)n2C(C)C	6.1%	-0.5	-1.7	-25.9%	0.2%	-13.5	-1.2
CC(=O)c1ccc(NC(=O)N2C[C@H]3C[C@@H](C2)c2cccc(=O)n2C3)cc1	12.4%	/	-1.9	1.3%	1.0%	/	-1.8
O=c1c2ccccc2nc(-c2ccc([N+](=O)[O-])cc2)n1-c1ccccc1	8.1%	0.7	6.8	-4.2%	-3.0%	-6.7	-17.1
C=CCn1c(O)c(C=Nc2c(C)n(C)n(-c3ccccc3)c2=O)c(=O)[nH]c1=O	-2.9%	0.7	28.5	0.6%	-0.3%	34.5	-0.9
COc1ccccc1CNC(=O)CCC(=O)N1C[C@H]2C[C@@H](C1)c1cccc(=O)n1C2	6.6%	/	-6.8	-1.3%	1.1%	/	13.7
CCN(c1ccc(C(O)(C(=O)OC)C(F)(F)F)cc1)S(=O)(=O)c1ccccc1 (stereo not drawn)	12.0%	-1.3	-1.5	0.3%	-1.5%	4.6	-5.9
C[C@]12CCC3C(CC[C@H]4C[C@@H](O)CC[C@]34C)C1CC[C@@H]2O (stereo partly drawn)	/	0.3	/	-1.8%	0.0%	3.2	/
CCOP(=O)(OCC)c1ccc(O)cc1	20.9%	0.3	3.5	-14.5%	-0.2%	-7.7	-3.0
O=C1NC(=O)C2(C(=O)N1)C(c1ccc(F)cc1)NC(=S)NC2c1ccc(F)cc1 (stereo not drawn)	-8.8%	-0.1	5.8	0.9%	-0.1%	3.9	2.8
NS(=O)(=O)c1ccc(-c2ccc(C=C3C(=O)NC(=S)NC3=O)o2)cc1	12.6µM*	/	?	/	/	/	-0.8
CCOc1cc2c(cc1OCC)-n1cccc1C(c1ccccc1OC)NC2 (stereo not drawn)	5.8%	0.7	-13.3	/	4.8%	-16.3	4.2
COc1cc(-c2ccc(=O)[nH]n2)ccc1OC(F)F	11.0%&-10.6%&-5.2%&11.1%&-7.8%&33.5%	0.7	-2.2	-1.4%	-0.1%	-5.9	3.1
O=S1(=O)N(Cc2ccccc2)CCCN1Cc1ccc(F)cc1Cl	/	-0.2	/	-1.8%	1.5%	-5.1	/
CSCCC(c1nnnn1-c1ccc2c(c1)OCCO2)N1CCC(n2c(=O)[nH]c3ccccc32)CC1 (stereo not drawn)	/	0.3	/	-0.4%	2.2%	1.4	/

Further compounds.
SMILES	Sfp PPTase inh	TRPML1 ag	Menin-MLL FL inh	ClpP mod	PINK1 expr mod	TRPML1 inh	TRPV1 PAM
CCOc1ccc(C=C2C(=O)NC(=S)NC2=O)cc1OCC	/	0.7	/	-1.9%	-0.4%	22.3	/
CC(C)C12CN3CC(C(C)C)(CN(C1)C3c1cccnc1)C2=O (stereo not drawn)	11.2%	-0.8	3.9	0.3%	-0.9%	60.9	3.7
CCNC(=O)[C@H]1O[C@@H](n2cnc3c(N)ncnc32)[C@H](O)[C@@H]1O	15.9%&22.1%&14.7%	-0.9	-4.6	2.1%	0.4%	-0.5	3.6
OC(Cc1ccccc1)(c1ccccc1)C1CN2CCC1CC2 (stereo not drawn)	3.5%	4.5	0.2	0.3%	-1.0%	7.5	-11.5
c1ccc([C@@H]2CO2)cc1	/	0.3	/	-1.5%	-0.1%	3.1	/
OCCOc1ccccc1	25.2%	-0.6	2.7	1.3%	1.0%	0.0	18.0
COC(=O)C1=C(c2ccc(OCc3ccccc3)cc2)C[C@@H]2CC[C@H]1N2C(=O)NCCN1CCOCC1	/	-0.4	/	-20.7%	-0.6%	-29.1	/
COc1ccc(OCCn2c(NC(=O)c3ccc(OC)cc3)nc3ccccc32)cc1	/	0.9	/	32.7%	12.4%	19.1	/
COc1ccccc1CNC(=O)CCC1N=C2c3ccccc3N=C(SCc3cccc(Cl)c3)N2C1=O (stereo not drawn)	/	-0.9	/	?	2.1%	-6.2	/
Cc1ccc2c(c1)N(C(=O)CCC(=O)N1CCC3(CC1)OCCO3)CCO2	22.3%	-0.7	/	0.9%	3.2%	5.7	2.0
CCOc1ccc2nc(N3CCC(C(=O)N4CCC5(CC4)OCCO5)CC3)sc2c1	4.0%	-0.3	-0.1	-2.5%	6.7%	5.2	2.3
Cc1ccc(N2C(=O)NC(=O)/C(=C\C=C\c3ccco3)C2=O)cc1	?	3.8	?	-0.2%	-0.1%	36.9	-7.6
NC(=O)c1ccc(C(=O)Nc2ccc([As](=O)(O)O)cc2)cc1	15.5%	/	2.2	/	/	/	25.8
CCOc1ccccc1N=C1SCCCN1C	-12.4%	0.3	5.3	0.8%	4.6%[38.3 µM]	10.4	-3.1
O=c1[nH]c2ccccc2n1C1CCN(C(c2ccnc3ccccc23)c2nnnn2-c2ccc3c(c2)OCCO3)CC1 (stereo not drawn)	/	-0.4	/	-0.7%	0.7%	/	/
O=c1[nH]c(=S)n(-c2ccc(F)cc2)c(O)c1/C=N/N1CCOCC1	3.5%	4.0	25.2	1.8%	1.3%	1.8	20.7
COC(=O)c1ccc(N2CCN(C)CC2)c([N+](=O)[O-])c1	0.7%	-0.6	-1.1	/	-0.4%	3.3	6.3
CN1CCCC1C(O)(c1ccccc1)c1ccccc1 (stereo not drawn)	/	-0.2	/	0.4%	1.2%[38.3 µM]	-0.5	/
O=C(CN1CCN(Cc2cccc(Cl)c2)C1=O)N1CCC2(CC1)OCCO2	9.4%	1.6	0.6	-5.4%	0.1%	-20.6	1.8
c1nnn(C23CC4CC(CC(C4)C2)C3)n1	9.1%	0.6	0.6	-0.4%	?	-17.0	-8.7
FC(F)(F)C1=NC(C(F)(F)F)=NP(N2CCOCC2)(N2CCOCC2)=N1	8.5%	-0.3	-0.9	1.9%	-2.8%	7.5	5.2
COc1ccc(C2=NS(=O)(=O)N(C)C(C(=O)N3CCC4(CC3)OCCO4)=C2)cc1OC	28.2%	0.3	-0.1	1.1%	-0.8%	-6.8	-6.1
O=C(O)C12C3CCCC1C32c1ccccc1 (stereo not drawn)	21.7%	-0.9	-1.0	-1.5%	1.3%[38.3 µM]	-1.6	-25.2
COc1cc([C@H]2OC[C@H]3[C@@H]2CO[C@@H]3c2cc(OC)c(O[C@@H]3O[C@H](CO)[C@@H](O)[C@H](O)[C@H]3O)c(OC)c2)cc(OC)c1O[C@H]1O[C@@H](CO)[C@H](O)[C@@H](O)[C@@H]1O	/	0.1	/	-5.0%	-0.4%	5.7	/
CCCCc1nc2ccccc2c(=O)n1-c1ccc(O)cc1	16.9%	-1.1	3.3	-0.1%	-1.4%	-10.7	7.5

The list goes on:
SMILES	Sfp PPTase inh	TRPML1 ag	Menin-MLL FL inh	ClpP mod	PINK1 expr mod	TRPML1 inh	TRPV1 PAM
Clc1ccccc1CN1CCN(c2ccccc2Cl)CC1	-18.4%	0.1	2.6	1.1%	5.9%[38.3 µM]	7.9	0.2
O=c1[nH]c(=S)[nH]c(O)c1N=Nc1cccc(S(=O)(=O)N2CCOCC2)c1	-9.1%	-0.8	2.8	0.2%	0.4%	-7.0	-5.4
COC(=O)CN1C(=O)C2(C(C(=O)OC)=C(N)Oc3ccccc32)C2=C1CC(C)(C)CC2=O (stereo not drawn)	10.3%	2.7	6.3	0.6%	1.2%[38.3 µM]	-1.8	?
Fc1ccc(CCNCc2cccc(Cl)c2)cc1	5.2%	0.5	2.2	-0.5%	-1.3%[38.3 µM]	27.2	-10.6
c1cc2c(cc1C1OC[C@@H]3C(c4ccc5c(c4)OCO5)OCC13)OCO2 (stereo partly drawn)	-4.0%	/	0.9	/	-0.1%	/	/
O=C1CC(N2CCC(n3c(=O)[nH]c4ccccc43)CC2)C(=O)N1Cc1ccccc1 (stereo not drawn)	-8.0%	-0.4	6.6	-2.9%	0.7%	1.7	4.3
NCCCC(=O)OC1N=C(c2ccccc2Cl)c2cc(Br)ccc2NC1=O (stereo not drawn)	-26.9%	-0.2	1.0	/	0.1%	-3.4	3.8
COCCNC(=O)Cn1cc(C=C2C(=O)NC(=O)NC2=O)c2ccccc21	15.4%	-1.2	-1.7	-4.4%	-0.6%	3.1	3.1
